High-throughput results as filed in PubChem BioAssay.
Autofluor counter: counter-screen for toxin protease inhibitors: compound fluorescence; 3.1% of 360,000 active; fluorescence intensity (concentration not given with the values); compound autofluorescence counterscreen, microsphere flow cytometry; stronger effect = higher value;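 active = at least 3 SD above the mean of all compounds, about 16000 in these data; inconclusive = too few beads counted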;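 note: 100 nL of 1 mM stock went into each well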
PrP UTR inh: suppresses PrP 5' UTR mRNA reporter expression; cell-based PrP 5' UTR mRNA reporter, plate reader; inhibition, % (test concentration not listed); 0.35% of 340,000 active; AID 488862;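 active = every replicate at 50% or more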;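 note: 0 = median of the neutral control wells; tested in H4 reporter cells; numbers are from one replicate; inactives centre near -14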
Sa RN4220 lethal: kills Staphylococcus aureus RN4220; S. aureus RN4220 growth, OD600, 16 h; inhibition, % (test concentration not listed); 0.33% of 330,000 active; AID 1259311;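 active = z-score of -3 or lower and OD600 up to 0.18 on both plates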;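 note: plate controls were untreated cells for no effect and reference antibiotic for full effect; stock transfer was 100 nL into about 80 µL; one replicate is shown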
BJeLR viability: BJeLR cell viability loss; BJeLR (HRASV12) viability, CellTiter-Glo ATP luminescence, 48 h; reference of the scale not given here; inhibition, % (test concentration not listed); 0.17% of 300,000 active; AID 1554;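 active = replicate mean above 50%; inconclusive = above 50% but judged a plate artefact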;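 note: 50 nL library stock added to about 25 µL; numbers are from one replicate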
ugtP null kill: compounds lethal to S. aureus RN4220 ugtP deletion mutant; OD600 growth, 16 h; some inactives read as strong as hits; growth inhibition, % (no concentration beside the values); 0.54% of 330,000 active; AID 1259309;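 active = z-score under -3 and OD600 up to 0.15 on both plates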;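 note: plate controls were untreated wells for no effect and antibiotic for full effect; wells of about 80 µL received 100 nL stock; the first replicate is given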
Mtb hypoxia rep: Mtb hypoxia fluorescent reporter inhibition | AID 1159583 | M. tuberculosis hypoxia-regulated fluorescent reporter, fluorescence | fluorescence inhibition, % (no concentration beside the values) | 0.1% of 300,000 active;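 active = 35 to 45% if threefold the growth effect, above 45% if 1.5-fold the growth effect; inactive = the rest, general growth blockers included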;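 note: wells of about 50 µL received 100 nL stock; 0% = vehicle wells and 100% = reference inhibitor wells; whole bacteria with a GFP reporter of the hypoxia response; strong numbers were not always called active; many hits fall short of the cut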
Mtb hypoxia rep growth: second read-out of Mtb hypoxia rep, no call of its own (marks repeat the call); growth inhibition, %; measured here: M. tuberculosis growth (absorbance);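 0% = vehicle and 100% = reference antibiotic; read after six days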
Numbers without * were called inactive; ? = inconclusive; . = no result given.

SMILES	Autofluor counter	PrP UTR inh	Sa RN4220 lethal	BJeLR viability	ugtP null kill	Mtb hypoxia rep	Mtb hypoxia rep growth
O/C(=C\c1nc2ccccc2[nH]1)c1cccs1	5772	-61.8	.	-2.1	.	.	.
Cc1cc(N2CCC(C)CC2)nc(SCC(=O)c2ccccc2)n1	3092	1.8	2.2	6.8	-3.6	.	.
Cc1ccsc1C(=O)C1CCCN(Cc2cccc(-n3cccn3)c2)C1 (stereo not drawn)	6830	-27.1	1.3	8.9	11.9	8.0	-0.3
CCN(CC(=O)N1CCOCC1)S(=O)(=O)c1ccc(F)cc1	6450	-21.0	3.9	-2.8	9.0	-4.1	3.1
CCn1ccnc1CN(C)Cc1cn[nH]c1-c1ccc(OC)c(F)c1	4350	-22.9	-1.0	12.3	1.8	0.4	-2.6
CCn1c(SCC(=O)OCc2ccccc2)nc2c1c(=O)n(C)c(=O)n2C	8096	-16.1	7.4	-2.7	12.8	5.6	-0.2
O=C(CN1CCCCC1)NN=Cc1cccc(Cl)c1	.	.	3.1	.	1.3	4.6	7.0
O=S(=O)(N=Cc1c(O)ccc2ccccc12)c1cccs1	.	.	6.1	.	-12.7	2.1	4.6
O=C(NO)c1ccccc1O	5946	-25.6	2.8	0.2	-5.3	13.8	-0.6
CC(C)(C)C(=O)Nc1ccc(N=Nc2ccccc2)cc1	3129	48.8	8.1	-0.1	0.1	1.8	-0.6
COC(=O)c1c(NC(=O)CN2CCC3(O)CCCCC3C2c2ccc(F)cc2)sc(C)c1C (stereo not drawn)	1991	3.3	1.1	20.4	-24.3	2.8	0.9
CCOC(=O)c1ccc(NC(=O)CN2C(=O)C(CC)SC(CC)C2=O)cc1 (stereo not drawn)	2467	-11.3	2.0	-0.6	-6.6	13.7	2.7
O=C(Nc1cccc(S(=O)(=O)N2CCCC2)c1)c1ccc(Cl)nc1	3731	-28.1	7.2	.	-6.1	-0.4	13.0
COc1cccc(C(=O)NCCS(=O)(=O)N2CCc3ccccc3C2)c1	6544	-15.2	5.9	-16.8	-1.8	11.2	1.0
COc1cc([N+](=O)[O-])ccc1NC(=O)C[n+]1ccccc1	2437	-6.1	-2.1	-3.1	-2.3	5.6	4.7
O=C(COC(=O)c1ccccc1)Nc1ccc(Cl)cc1C(=O)c1ccccc1	2536	-5.4	3.3	0.0	17.1	3.6	-3.1
O=C(O)c1ccccc1C(=O)NCCc1ccc(Cl)cc1	4954	-30.4	2.0	-4.0	1.5	9.3	-1.1
CC(OC(=O)c1cccnc1Cl)C(=O)Nc1ccc2c(c1)OCCO2 (stereo not drawn)	1946	-10.7	0.0	-8.2	0.8	-8.7	6.0
CC(C)CCOc1ccc(C(=O)NNC(=O)CNC(=O)c2ccccc2F)cc1	4538	-19.7	0.5	.	6.9	12.1	7.0
COc1ccc(CNC(=O)Cn2c(=O)oc3ccccc32)cc1OC	2468	5.4	12.6	.	4.2	-1.6	2.8
O=C(Nc1ccnn1C1CCN(Cc2ccccc2OC(F)F)CC1)c1cccc(F)c1	5953	-19.1	-1.9	-2.7	-5.0	5.6	3.4
COc1ccc(/C(C)=N/N=C(\C)c2ccc(OC)cc2OC)c(OC)c1	2673	21.1	.	-0.3	.	.	.
CC(=O)N1CCN(C(=O)c2cc3c(s2)CCCC3)CC1	?	-2.3	2.1	.	1.0	4.2	7.9
COc1ccc(C(=O)Nc2cc(=O)[nH]c3ncnn23)cc1	4802	-11.8	2.3	-6.9	-1.9	22.0	14.0
CCOC(=O)C(C)Sc1nc(-c2ccccc2)nc2ccccc12 (stereo not drawn)	2504	-9.0	-1.9	-5.4	56.7	-0.2	11.0
O=C1c2ccccc2C(O)(Cc2ccccc2)N1Cc1ccco1 (stereo not drawn)	11136	-7.5	4.8	4.2	1.8	7.0	10.7
O=C(NN=C1CCCc2ccccc21)c1ccccc1[N+](=O)[O-]	.	.	1.3	.	1.9	9.3	-2.7
Nc1nccc(SCc2ccccc2)n1	3613	-13.9	4.9	.	2.7	9.1	8.0
Cc1cccn2c(=O)c3cc(C(=O)N4CC(C)CC(C)C4)sc3nc12 (stereo not drawn)	3395	-21.2	1.8	-2.2	7.2	-1.4	-0.8
O=P(O)(O)CCP(=O)(c1ccccc1)c1ccccc1	5186	-17.3	7.7	-0.5	2.1	8.9	6.5

Single records (already shown). Screens in order: Autofluor counter, PrP UTR inh, Sa RN4220 lethal, BJeLR viability, ugtP null kill, Mtb hypoxia rep, Mtb hypoxia rep growth
`CCOC(=O)C(C)Sc1nc(-c2ccccc2)nc2ccccc12` (stereo not drawn) is listed as 2504, -9.0, -1.9, -5.4, 56.7, -0.2, 11.0
`O=C(O)c1ccccc1C(=O)NCCc1ccc(Cl)cc1` is listed as 4954, -30.4, 2.0, -4.0, 1.5, 9.3, -1.1
`CC(C)CCOc1ccc(C(=O)NNC(=O)CNC(=O)c2ccccc2F)cc1` is listed as 4538, -19.7, 0.5, ., 6.9, 12.1, 7.0

Next section
SMILES	Autofluor counter	PrP UTR inh	Sa RN4220 lethal	BJeLR viability	ugtP null kill	Mtb hypoxia rep	Mtb hypoxia rep growth
Cc1cc(NS(=O)(=O)c2ccc(NC(=S)NC(=O)c3ccc(F)cc3)cc2)no1	1892	-13.3	0.1	4.5	58.9	9.7	2.0
COc1ccc(N2C(=O)CNC2=S)cc1	2646	-7.9	4.7	-0.2	11.3	2.4	15.2
CCC(=O)NCC(c1ccco1)N1CCN(c2ccc(OC)cc2)CC1 (stereo not drawn)	5662	-9.3	0.0	18.9	1.1	7.5	6.2
COc1ccc(OC)c(-c2cc(C(=O)Nc3c(C)nn(Cc4ccccc4C)c3C)no2)c1	11329	-1.8	-0.3	5.6	-4.7	0.2	11.3
Cc1ccc(C)c(N(C(=O)CS(=O)CC(=O)Nc2ccc3c(c2)OCO3)C(C)C(=O)NC2CCCC2)c1 (stereo not drawn)	3551	-15.2	6.2	-2.2	-3.8	12.6	12.3
CS(=O)(=O)N(Cc1ccc(C(=O)NC2CCCC2)cc1)c1ccccc1	4560	-107.7	0.5	7.9	8.5	9.6	-2.0
COc1ccc(NS(=O)(=O)c2cc(NC(=O)COc3ccc(OC)cc3)ccc2N2CCOCC2)cc1	8711	-18.1	-1.4	.	-4.7	2.1	7.2
CCC1CCCCN1CCCNC(=O)C1CC(=O)N(CCc2ccccc2)C1 (stereo not drawn)	5498	-13.2	4.0	-1.0	8.3	6.1	13.2
CC(=O)c1nn(-c2ccc(Cl)cc2)cc1C(=O)c1ccc(C)cc1	6308	.	-5.8	-11.1	-1.8	46.6*	1.5*
CN1C(=O)/C(=C/c2cccc(Cl)c2)Sc2ccc(C(=O)N3CCOCC3)cc21	4506	-29.5	4.0	-8.2	-6.7	-0.2	-0.4
CN(C(=O)CN(c1ccccc1)S(=O)(=O)c1ccc(F)cc1)C1CCS(=O)(=O)C1 (stereo not drawn)	4633	-6.4	3.4	4.1	4.5	12.0	-0.7
CCOC(=O)c1ccc2c(c1)nc(SCc1cn3ccsc3n1)n2CC	2818	-5.4	1.6	-2.2	-3.6	-1.0	9.0
CCCCn1c(N)c(N(CC)C(=O)c2ccccc2C(F)(F)F)c(=O)[nH]c1=O	3884	-16.7	-2.4	-1.4	4.8	8.9	7.1
O=C(O)COCC(=O)NC1CCN(Cc2ccccc2)CC1	.	.	3.8	-1.7	5.5	14.9	9.2
COc1cccc(CNC(=O)c2cccnc2Sc2ccc(Cl)cc2)c1	5925	2.9	2.0	-3.5	5.1	9.5	-2.6
COc1ccc(CCC(=O)N/N=C/c2ccc3c(c2)OCO3)cc1	4084	-16.0	.	13.3	.	.	.
COc1ccc(CNC(=O)c2c(C)oc3c2C(=O)c2ccccc2C3=O)cc1	4089	-29.9	46.1	10.9	33.7	4.1	14.6
COc1ccc(NC(=O)/C=C/c2c(Cl)nc3ccccn23)cc1	1540	-26.7	.	-0.9	.	.	.
O=C1CC(c2ccc(Cl)cc2)CC(O)=C1C=NCCO (stereo not drawn)	3888	-24.1	5.5	2.7	6.6	7.1	3.1
Cc1ccc(NC(=O)CN(C)C(=O)c2ccc(Cl)c(S(=O)(=O)NCc3ccco3)c2)cc1	3763	-7.7	9.5	.	9.8	-0.4	2.0
CCOC(=O)c1c(CN2CCN(CCO)CC2)n(-c2ccccc2)c2cc(Br)c(O)cc12	4822	-15.8	0.3	3.9	1.8	7.2	22.5
CC(C)(C)[C@H]1C=C(C(N)=O)O[C@@H](OCCCCO)C1	3953	-3.1	.	-2.0	.	.	.
O=C(COc1ccccc1)Nc1nnc(-c2ccc3c(c2)CCCC3)o1	3968	-20.8	38.0	1.4	30.7	6.6	9.9
C/C(=N\Nc1ccccn1)c1ccc(OC(F)F)cc1	4359	-32.0	.	3.2	.	.	.
Cc1ccccc1NC(=O)C1CCCN(S(=O)(=O)c2cnc[nH]2)C1 (stereo not drawn)	4013	-7.0	-0.3	1.8	2.8	.	.
COc1ccc(C(=O)O/N=C(\N)Cc2ccc(Cl)cc2)cc1OC	3250	-24.5	.	8.5	.	.	.
COc1ccc2c(c1)C(=O)C(=O)N2CC1COc2ccccc2O1 (stereo not drawn)	2811	-28.1	6.8	0.0	-1.3	0.1	-2.5
CCc1nc(SCc2nnc(-c3ccc(C)cc3)o2)c2c(C)c(C)sc2n1	.	.	1.6	-7.0	2.0	.	.
Cc1cc(NC(=O)c2ccc3c(c2)C(=O)N(C2CCCCC2)C3=O)no1	3292	0.8	3.1	4.5	3.1	3.1	11.9
COCCCNCCCCOc1cccc(Br)c1	9307	-18.1	6.2	-5.7	6.4	8.6	6.1
CCC(C)NC(=O)c1cc2c(=O)n3ccccc3nc2s1 (stereo not drawn)	3641	-9.8	1.8	5.5	-0.5	6.8	10.9
C/C(CC(=O)NCc1ccco1)=N\NC(=O)c1ccc(Cl)cc1Cl	2967	0.6	.	-5.3	.	.	.
CCNc1c(C(=O)O)ccc2c1C(=O)c1ccccc1C2=O	2437	-25.0	14.6	3.3	13.6	18.5	1.0
O=C(NNS(=O)(=O)c1ccc(F)cc1)c1cnccn1	4247	-3.5	-2.2	32.5	4.9	11.8	2.5
C/C(N)=C(/C#N)C(=O)CSc1cc(Cl)ccc1Cl	2072	-12.5	3.8	-1.1	-0.4	9.3	2.3
COCCNC(=O)CSCc1nc(-c2ccc(SC)cc2)oc1C	9596	-6.5	2.1	-0.7	-0.5	1.1	-1.7
CCOC(=O)N1CCC(Nc2c(-c3ccccc3)c(=O)c2=O)CC1	20189*	-36.2	4.9	-12.4	-9.6	-2.4	15.6
Cc1cccc(N2C(=O)CC(Sc3nc(C)cc(C)n3)C2=O)c1 (stereo not drawn)	4179	-29.9	3.1	11.7	3.6	.	.
O=C(NCCc1ccccc1)C(=O)Nc1ccc([N+](=O)[O-])cc1	2179	-10.8	4.4	5.8	-1.3	8.7	7.3
Cc1[nH]c2ccccc2c1N=Nc1ccc(F)cc1	3297	-13.7	16.2	5.3	69.1	-4.6	1.1
CCn1nccc1C(=O)Nc1cc(Cl)ccc1Cl	2934	-28.6	8.8	0.7	-1.6	.	.
O=C(Nc1nc(-c2ccccc2)cs1)c1ccc(S(=O)(=O)N2CCc3ccccc32)cc1	4110	-7.4	-1.8	3.5	11.6	-1.1	1.9
Cc1ccc(S(=O)(=O)CCC(=O)OCC(=O)Nc2cc(C)on2)cc1	4748	-11.8	1.2	-7.8	0.9	.	.
Cc1ccccc1C(=O)N1CCC(C(=O)NN2C(=O)NC3(CCC(C)CC3)C2=O)CC1 (stereo not drawn)	7991	-29.3	6.3	.	3.4	4.1	-2.1
CC(NC(=O)c1cc2c(=O)n3ccccc3nc2n(CC2CCCO2)c1=N)c1ccccc1 (stereo not drawn)	6125	-6.7	1.6	-1.8	5.3	-16.4	-1.3
CCCCn1c(N)c(N(CCC(C)C)C(=O)c2cc(CC)c(C)s2)c(=O)[nH]c1=O	5073	1.2	-0.7	3.0	0.0	-4.6	-0.5
O=C(CSc1nc(-c2ccccc2)cc(=O)[nH]1)N1CCOCC1	4915	-3.8	3.7	10.4	-2.0	.	.

A different layout for three compounds above:
Compound,Autofluor counter,PrP UTR inh,Sa RN4220 lethal,BJeLR viability,ugtP null kill,Mtb hypoxia rep,Mtb hypoxia rep growth
COc1cc([N+](=O)[O-])ccc1NC(=O)C[n+]1ccccc1,2437,-6.1,-2.1,-3.1,-2.3,5.6,4.7
O=C(COC(=O)c1ccccc1)Nc1ccc(Cl)cc1C(=O)c1ccccc1,2536,-5.4,3.3,0.0,17.1,3.6,-3.1
O=C(O)c1ccccc1C(=O)NCCc1ccc(Cl)cc1,4954,-30.4,2.0,-4.0,1.5,9.3,-1.1
